HPGD inh – blocks human HPGD enzyme activity; Potency, µM, inactives show at the top dose activity change, negative = inhibition, hits mostly inhibitors; hit rate 4.3% among 150,000; AID 894; purified HPGD, NADH fluorescence kinetic, PGE2 substrate; active = well fitted inhibition curve with a large enough effect (not every such curve was filed as active); inconclusive = small, poorly fitted or top-dose-only effect, or another doubt; inactive = no such curve, though single readings can be large or run the other way;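 note: top concentration of the series not given in the record; plate controls included wells without enzyme; inactives centre near -10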
Target sequence (P15428 whole entry, looked up): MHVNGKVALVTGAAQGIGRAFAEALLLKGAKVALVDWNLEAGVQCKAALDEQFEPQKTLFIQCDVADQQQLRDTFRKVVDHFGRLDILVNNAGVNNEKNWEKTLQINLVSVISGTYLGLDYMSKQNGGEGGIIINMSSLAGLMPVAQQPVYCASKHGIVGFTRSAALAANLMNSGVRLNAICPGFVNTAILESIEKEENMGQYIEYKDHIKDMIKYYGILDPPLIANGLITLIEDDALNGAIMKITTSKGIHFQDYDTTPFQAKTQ
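20 nM HPGD preincubated 15 min at room temperature with compound in 50 mM Tris-HCl pH 8, 0.01% Tween 20. Started with 1 mM NAD+ and 30 uM prostaglandin E2; NADH fluorescence (360/450 nm) read 5 times over 30-s intervals, last minus first.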
* = called active by the depositor; & = joins results of further samples. % is set by controls: 0 for no effect and ±100 for the full control effect; potency is the fitted concentration of half-maximal effect. An excerpt. The share of hits here may be higher or lower than overall.

What do the screens show for `C[C@H](C(=O)c1ccccc1)C(c1ccccc1)N1CCOCC1` (stereo partly drawn)?
HPGD inh: -29%

Results for COC(=O)Nc1sc(C)nc1-c1ccccc1 ?
HPGD inh: 5%

How did COc1ccc(C(C)=O)cc1COC(=O)c1ccc(OCc2c(C)noc2C)cc1 do in these assays?
HPGD inh: -12%

What do the screens show for `CCOC(=O)c1ccc(NC2c3ccccc3C(=O)N2c2ccccn2)cc1` (stereo not drawn)?
HPGD inh: -4%

How did COc1cccc(-c2coc3c(C)c4oc(=O)c(CCC(=O)O)c(C)c4cc23)c1 do in these assays?
HPGD inh: inconclusive

What do the screens show for `COc1ccc(-n2c(=O)c(C)nc3cnc(Nc4cccc(OC)c4)nc32)cc1`?
HPGD inh: -13%

Results for CCCCCOC(=O)NCC(O)c1ccccc1 (stereo not drawn) ?
HPGD inh: -17%

Results for Cc1cc(C)n(CC(O)COCc2ccco2)n1 (stereo not drawn) ?
HPGD inh: -10%

What do the screens show for `Clc1cccc(OCCN2CCNCC2)c1`?
HPGD inh: -2%

Results for O=C1c2ccccc2CCC12N=NCC2c1ccc(Br)cc1 (stereo not drawn) ?
HPGD inh: -12%

How did CCOC(=O)Nc1ccc2c(c1)N(C(=O)CCN1CCN(C)CC1)c1ccccc1S2 do in these assays?
HPGD inh: 5%

What do the screens show for `CCOCCCNS(=O)(=O)c1ccccc1`?
HPGD inh: -1%

What do the screens show for `COc1ccccc1N1CCN(/N=C/C=C\c2ccco2)CC1`?
HPGD inh: -5%

Results for O=C(CN1C(=O)C2C3C=CC(C3)C2C1=O)NCCc1ccccc1Cl (stereo not drawn) ?
HPGD inh: 4%

What do the screens show for `CCOC(=O)c1cnc(SCc2ccccc2)nc1N`?
HPGD inh: -19%

Overlap with the part before: 2 compounds, followed by the next part.
Results for O=C(CN1C(=O)C2C3C=CC(C3)C2C1=O)NCCc1ccccc1Cl (stereo not drawn) ?
HPGD inh: 4%

What do the screens show for `CCOC(=O)c1cnc(SCc2ccccc2)nc1N`?
HPGD inh: -19%

What do the screens show for `CCSc1nnc(CNC(=O)C23CC4CC(CC(C4)C2)C3)n1C1CCCCC1`?
HPGD inh: -2%

How did COc1ccc(NS(=O)(=O)c2ccc(NC(=O)c3ccc(N(C)S(C)(=O)=O)cc3)cc2)c(OC)c1 do in these assays?
HPGD inh: 0%

What do the screens show for `FC(F)(F)c1ccc(N2CCN(c3cc(-c4ccccc4)nc4ncnn34)CC2)nc1`?
HPGD inh: -10%

How did O=S(=O)(c1cccc(C(F)(F)F)c1)N1CCN(C(=S)NCc2ccco2)CC1 do in these assays?
HPGD inh: -8%

Results for Cc1cc(C)cc(N2C(=O)CC(n3nc(C)cc3C)C2=O)c1 (stereo not drawn) ?
HPGD inh: -5%

What do the screens show for `CCOC(=O)c1oc2ccccc2c1CN1CCN(c2ccccc2)CC1`?
HPGD inh: -4%

Results for CCCCOC(=O)c1cccc(NC(=O)CCC(=O)O)c1 ?
HPGD inh: -9%

How did COC(=O)n1c(=O)oc2ccccc21 do in these assays?
HPGD inh: -5%

Results for C=C(Br)Cn1c(CC(C)C)nc2ccccc21 ?
HPGD inh: -4%

What do the screens show for `c1ccc(CCc2nn3c(Cn4nnc5ccccc54)nnc3s2)cc1`?
HPGD inh: 10µM*

Results for CCn1c2ccc(OC)cc2c2nc3ccccc3nc21 ?
HPGD inh: -15%

Results for CCn1c(/C=C2/C(=O)N(C)c3ccccc32)nc2ccccc2c1=O ?
HPGD inh: -39%

What do the screens show for `CS(=O)(=O)N(CC(=O)O)c1cc(Cl)cc(Cl)c1`?
HPGD inh: -4%

How did CCOc1ccc2c(c1)c1nnc(SCC(=O)N3CCCCC3C)nc1n2C (stereo not drawn) do in these assays?
HPGD inh: 16µM*

Results for Cn1nnnc1SCCNCc1cc(Cl)ccc1OCc1ccccc1 ?
HPGD inh: -4%

What do the screens show for `N#Cc1nc(-c2ccc(F)cc2)oc1N1CCCC1`?
HPGD inh: inconclusive

How did O=C(COC(=O)COc1ccccc1Cl)Nc1ccccc1OC(F)F do in these assays?
HPGD inh: -12%

Results for COC(=O)c1ccccc1NC(=O)Cn1nnc(-c2ccc(OC)cc2)n1 ?
HPGD inh: inconclusive

What do the screens show for `O=S(=O)(c1ccc(-c2nc3ccccc3s2)cc1)N1CCCC1`?
HPGD inh: inconclusive

What do the screens show for `Cc1cc(C)c2c(N)c(-c3nc4ccccc4[nH]3)sc2n1`?
HPGD inh: -17%

What do the screens show for `CN1/C(=C\C(=O)COC(=O)Cn2nnc(-c3ccccc3)n2)C(C)(C)c2ccccc21`?
HPGD inh: inconclusive

What do the screens show for `O=C(NCC1CCCO1)C12CN(Cc3ccccc3)CC1C(c1cccc([N+](=O)[O-])c1)=NO2` (stereo not drawn)?
HPGD inh: -8%

How did NC1=NC(=Nc2ccc(Cl)cc2)c2ccccc21 do in these assays?
HPGD inh: -8%

How did O=C(O)/C=C\c1cccc(-n2cnnn2)c1 do in these assays?
HPGD inh: -4%

How did COc1ccc(OC)c(NC(=O)CNC(=O)c2cccs2)c1 do in these assays?
HPGD inh: -6%

What do the screens show for `O=C1C2ON(c3ccccc3)C(c3ccccc3F)C2C(=O)N1c1ccccc1` (stereo not drawn)?
HPGD inh: -14%

Results for c1ccc2c(c1)[nH]c1nc(SCCN3CCOCC3)nnc12 ?
HPGD inh: 32µM*

Results for CN1[C@@H](CC(=O)c2ccccc2)CCC[C@@H]1C[C@@H](O)c1ccccc1 ?
HPGD inh: -4%

How did Cc1nnc(SC(C)C(=O)Nc2ccc(Cl)cn2)n1Cc1ccccc1 (stereo not drawn) do in these assays?
HPGD inh: 1%

How did CC(=O)Nc1ccc(-c2nc3c(C)cccc3[nH]2)cc1 do in these assays?
HPGD inh: inconclusive

How did COC(=O)c1cc(OC)c(OC)cc1NC(=S)Nc1cccc(Cl)c1 do in these assays?
HPGD inh: -16%

Results for O=c1cc(N2CCN(c3ccccc3)CC2)[nH]c(=O)n1Cc1ccc(F)cc1 ?
HPGD inh: -13%

How did Cc1sc(NC(=O)c2ccccc2F)c(CN2CCCCC2)c1C do in these assays?
HPGD inh: -17%

What do the screens show for `Cc1ccsc1C1Nc2ccccc2-c2nc3ccccc3n21` (stereo not drawn)?
HPGD inh: inconclusive

How did O=C(CC(C(=O)O)C1CCCO1)NCc1ccccc1 (stereo not drawn) do in these assays?
HPGD inh: -8%

What do the screens show for `Cc1cc(C)n(-c2cc(C)c(C)cc2Br)n1`?
HPGD inh: -14%

What do the screens show for `CCOC(=O)Cc1nnc(NC(=O)CSc2ccccc2)s1`?
HPGD inh: -4%

What do the screens show for `O=C(NCCc1ccccn1)C1CCCN(S(=O)(=O)Cc2ccccc2)C1` (stereo not drawn)?
HPGD inh: -8%

Results for O=c1c(Cl)c(NCCCO)cnn1-c1nc2ccccc2[nH]1 ?
HPGD inh: -12%

How did N/C(=N\OS(=O)(=O)c1ccc(Br)cc1)c1ccncc1 do in these assays?
HPGD inh: -2%

Results for CCCC(C)NC(=O)c1cc(Cl)ccc1OC (stereo not drawn) ?
HPGD inh: -7%

How did CC1=CC(C)(C)Nc2ccc(OC(=O)C(C)N3C(=O)c4ccccc4C3=O)cc21 (stereo not drawn) do in these assays?
HPGD inh: -15%

What do the screens show for `Cc1cccc(NC(=S)NCC(c2cccnc2)N(C)C)c1` (stereo not drawn)?
HPGD inh: -6%

Results for O=S(=O)(NCC(c1cccnc1)N1CCN(c2ccc(F)cc2)CC1)c1ccc(F)cc1 (stereo not drawn) ?
HPGD inh: 2%

How did O=C(Cn1nc(Cl)nc1Cl)Nc1ccccc1 do in these assays?
HPGD inh: -4%

Results for Cc1ccc2nc(SCn3nnc4ccccc4c3=O)[nH]c2c1 ?
HPGD inh: -6%

Results for C=CCC(C#Cc1ccc(C)cc1)N(CC)CC (stereo not drawn) ?
HPGD inh: -7%

How did Cc1ccccc1NC(=O)c1ccc(-n2cncn2)nc1 do in these assays?
HPGD inh: -20%

What do the screens show for `c1ccc(Cn2c(Sc3nnnn3-c3ccccc3)nnc2-c2ccccc2)cc1`?
HPGD inh: -21%

How did O=C(NCc1ccco1)/C(=C\c1cccs1)NC(=O)c1ccsc1 do in these assays?
HPGD inh: -15%

Results for Cc1cccc(C(=O)O/N=C2\CCCc3ccccc32)c1 ?
HPGD inh: -10%

How did COc1cc2nc(C3CCC3)n(NC(=O)C3CCCC(OC)C3)c(=O)c2cc1OC (stereo not drawn) do in these assays?
HPGD inh: -8%

What do the screens show for `Cc1c(C(=O)N2CCN(c3ncccn3)CC2)sc2nc3n(c(=O)c12)CCCC3`?
HPGD inh: -12%

Results for CC(C)N1CCN(c2ccncc2S(=O)(=O)N2CCOCC2)CC1 ?
HPGD inh: -11%

How did COc1ccc(NC(=O)CCSc2cc(C)c3ccccc3n2)cc1 do in these assays?
HPGD inh: -4%

Results for Cc1cc(Cl)ccc1OCCCC(=O)N1CCN(C)CC1 ?
HPGD inh: -28%

How did COc1ccc(C)cc1S(=O)(=O)N1CCCC(C(=O)NCC2CCCO2)C1 (stereo not drawn) do in these assays?
HPGD inh: 0%

Results for COc1ccc(/C=C/C(=O)N2CCC(c3ccccc3)C2)cc1 (stereo not drawn) ?
HPGD inh: -12%

What do the screens show for `CCOC(=O)CNC1CC(=O)N(c2cccc(Cl)c2)C1=O` (stereo not drawn)?
HPGD inh: 0%

How did Cc1ccc(S(=O)(=O)NCC(=O)N2CCN(c3ccccn3)CC2)cc1 do in these assays?
HPGD inh: -12%

How did Cc1csc(NC(=O)C(NS(=O)(=O)c2ccc(Br)s2)c2ccccc2)n1 (stereo not drawn) do in these assays?
HPGD inh: -5%

How did CN(C)CCSCCO do in these assays?
HPGD inh: -3%

How did Cc1cccc(NC(=O)Nc2ccc(Oc3c(F)c(F)c(F)c(F)c3F)cc2)c1 do in these assays?
HPGD inh: -6%

What do the screens show for `COc1ccc(C(=O)/C=C(\N)C(F)(F)F)c(O)c1`?
HPGD inh: -14%

How did c1ccc(Nc2nc(N3CCCC3)nc(N3CCCC3)n2)cc1 do in these assays?
HPGD inh: 0%

How did CCC(=O)n1nc(-c2ccccc2)nc1N do in these assays?
HPGD inh: -7%

What do the screens show for `CCCCC/C(=N\NC(=O)CCC(=O)NCc1ccccc1)c1ccccc1`?
HPGD inh: 0%

Results for O=C(C1=C(O)/C(=C/c2ccc(O)cc2)CCC1)C(F)(F)F ?
HPGD inh: -22%

Results for Cc1ccc(C)c(NS(=O)(=O)c2cc(C(=O)Nc3cccc(N(C)S(C)(=O)=O)c3)ccc2C)c1 ?
HPGD inh: -28%

Results for C[n+]1ccccc1N1CCN(c2ccccc2Cl)CC1 ?
HPGD inh: -6%

Results for COc1cc2c(cc1NC(=S)NC(=O)c1c(OC)cccc1OC)oc1ccccc12 ?
HPGD inh: -18%

Results for C[N+](C)(C)CCN(Cc1ccc(Cl)cc1)c1ccccn1 ?
HPGD inh: -13%

How did COC(=O)C1=C(C)N(Cc2ccco2)C(=O)N[C@H]1c1ccccc1 do in these assays?
HPGD inh: -7%&-2%

How did Cc1ccc(CNC(=O)C(=O)NCC(c2ccco2)N2CCOCC2)cc1 (stereo not drawn) do in these assays?
HPGD inh: -4%

Results for Cc1cc(C)c(C#N)c(SCC(=O)Nc2nnc(-c3ccccc3)s2)n1 ?
HPGD inh: -19%

What do the screens show for `COc1ccc(-c2nc3c(c4c2C[C@H](c2ccccc2)OC4)CN(C(=O)c2ccco2)CC3)c(C)c1`?
HPGD inh: -12%

Results for O=C(C1CCC(=O)N1Cc1ccccc1Cl)N1CCN(c2ccc(F)cc2)CC1 (stereo not drawn) ?
HPGD inh: 0%

What do the screens show for `O=C(c1cnccn1)N(Cc1ccco1)C1(C(=O)NC2CCCC2)CCCCC1`?
HPGD inh: -6%

Results for O=C(Nc1ccc(Cl)cc1)N1CCc2[nH]c3ccccc3c2C1 ?
HPGD inh: -4%

Results for CCOC(=O)CSc1nc2sc(C)c(C)c2c(=O)n1N ?
HPGD inh: -5%

Results for Cc1ccc(Cn2ccc(=O)c(Cc3c(Cl)cccc3Cl)c2C)cc1 ?
HPGD inh: -14%

Results for c1ccc(CN(Cc2cccs2)C(c2cccs2)c2nnnn2C2CCCC2)cc1 (stereo not drawn) ?
HPGD inh: -8%

Results for CC(C)(C)OC(=O)N1CC(O)CC1C(=O)OCC(=O)c1ccccc1 (stereo not drawn) ?
HPGD inh: -5%

Filtered by structure, those above with a furan ring, fused or not
How did COc1cccc(-c2coc3c(C)c4oc(=O)c(CCC(=O)O)c(C)c4cc23)c1 do in these assays?
HPGD inh: inconclusive

Results for Cc1cc(C)n(CC(O)COCc2ccco2)n1 (stereo not drawn) ?
HPGD inh: -10%

What do the screens show for `COc1ccccc1N1CCN(/N=C/C=C\c2ccco2)CC1`?
HPGD inh: -5%

How did O=S(=O)(c1cccc(C(F)(F)F)c1)N1CCN(C(=S)NCc2ccco2)CC1 do in these assays?
HPGD inh: -8%

What do the screens show for `CCOC(=O)c1oc2ccccc2c1CN1CCN(c2ccccc2)CC1`?
HPGD inh: -4%

How did O=C(NCc1ccco1)/C(=C\c1cccs1)NC(=O)c1ccsc1 do in these assays?
HPGD inh: -15%

Results for COc1cc2c(cc1NC(=S)NC(=O)c1c(OC)cccc1OC)oc1ccccc12 ?
HPGD inh: -18%

How did COC(=O)C1=C(C)N(Cc2ccco2)C(=O)N[C@H]1c1ccccc1 do in these assays?
HPGD inh: -7%&-2%

How did Cc1ccc(CNC(=O)C(=O)NCC(c2ccco2)N2CCOCC2)cc1 (stereo not drawn) do in these assays?
HPGD inh: -4%

What do the screens show for `COc1ccc(-c2nc3c(c4c2C[C@H](c2ccccc2)OC4)CN(C(=O)c2ccco2)CC3)c(C)c1`?
HPGD inh: -12%

What do the screens show for `O=C(c1cnccn1)N(Cc1ccco1)C1(C(=O)NC2CCCC2)CCCCC1`?
HPGD inh: -6%

From PubChem BioAssay
